From PubChem BioAssay
Vaccinia mCherry = inhibitors of vaccinia virus infection (mCherry reporter signal); Vaccinia virus mCherry reporter infection, fluorescence; about a quarter of the inactives have no number; Potency, µM (titrated, usually from 36.5 µM), inactives show top-dose activity change, negative = inhibition, most hits filed as inhibitors; 0.63% of 310,000 active; active = well fitted inhibition curve with a large enough effect; inconclusive = small, poorly fitted or top-dose-only effect; inactive = no such curve, though single readings can be large or run the other way; tested in A549 cells; further: nearly all actives have a fitted effect of over 35% in size; inactives centre near -10
VACV Venus inh = vaccinia inhibition (Venus reporter). Vaccinia virus Venus reporter expression, fluorescence. Potency, µM (top dose mostly 36.5 µM), for the others: at the highest dose activity change, negative = inhibition, most hits filed as inhibitors. 0.46% of 330,000 active. AID 720580; active means well fitted inhibition curve with a large enough effect; inconclusive means small, poorly fitted or top-dose-only effect; inactive means no such curve, though single readings can be large or run the other way; tested in A549 cells; further: nearly all actives have a fitted effect of over 30% in size; inactives centre near -10
An asterisk follows results filed as active; i = inactive; ? = inconclusive; · = no result given; & = joins results of further samples. On the % scale 0 is the no-effect control and ±100 the full control effect; potency means the concentration at half of the fitted maximal effect. Hits appear at their usual frequency (roughly 0.82% active in at least one column).

SMILES | Vaccinia mCherry | VACV Venus inh
CCN(C(=O)CSc1ncn[nH]1)c1cccc2ccccc12 | · | 2%
CCN1CCN(c2nc(N)c([N+](=O)[O-])c(Nc3cccc(C)c3)n2)CC1 | i | -5%
CC(=O)CCc1oc2ccc([N+](=O)[O-])cc2c1-c1ccc(C)o1 | -9% | -1%
Cc1ccc(O)c(C2=Nc3ccccc3N=C(c3ccco3)C2)c1 | · | -14%
CN(C)c1nc(SCc2ccccc2Cl)nc2c1CCCC2 | -21% | -11%
O=C(c1cc(Cl)nc2ccccc12)N(Cc1nnc(-c2ccccc2Cl)o1)C1CC1 | -1% | -9%
COc1ccc(CC(=O)N(C)CC(=O)Nc2ccccc2C(F)(F)F)cc1S(=O)(=O)N1CCOCC1 | -13% | -2%
Cc1ccc2cc(CN(C(=O)c3cccs3)c3ccccc3)c(=O)[nH]c2c1 | 0% | -12%
O=C(COC(=O)CCC1CCCC1)NCc1ccc(Cl)cc1 | -17% | 5%
COc1ccc(OC)c(NC(=O)Nc2cnccn2)c1 | i | -19%

One compound at a time, as listed above:
CCN1CCN(c2nc(N)c([N+](=O)[O-])c(Nc3cccc(C)c3)n2)CC1 reads Vaccinia mCherry = i; VACV Venus inh = -5%
CCN(C(=O)CSc1ncn[nH]1)c1cccc2ccccc12 reads Vaccinia mCherry = ·; VACV Venus inh = 2%

The list goes on.
SMILES | Vaccinia mCherry | VACV Venus inh
O=C(c1nnc(-c2ccccc2)o1)C1CC1 | i | -10%
O=C(CC(=O)Nc1ccc(F)cc1)Nc1ccc(F)cc1 | i | -5%
Cc1ccc(O)c(NC(=O)c2ccccc2-c2ccccc2C(=O)O)c1 | -7% | -6%
Cc1onc(-c2ccccc2Cl)c1C(=O)N1CCCCCC1 | 5% | -4%
CN(C)c1ccc(N=Cc2nc(-c3ccccc3)oc2OC(=O)c2cccc(Cl)c2)cc1 | -14% | -13%
COc1ccc(C(=O)N2CCN(c3ccc([N+](=O)[O-])c(NCCc4ccc(OC)c(OC)c4)c3)CC2)cc1 | ? | -21%
O=C1CCC(C(=O)Nc2cccc(S(=O)(=O)N3CCOCC3)c2)N1 (stereo not given) | i | -24%
Cc1ccc2ncc(S(=O)(=O)c3ccccc3)c(N3CCCCC3C)c2c1 (stereo not given) | ? | -8%&-11%
CNC(=O)/C(C#N)=C/c1cn(CC(=O)OC)c2ccccc12 | i | -17%
Cc1ccc2nc(SCC(=O)NCC3CCCO3)c(C#N)cc2c1 (stereo not given) | · | -7%
N#CCC(=O)NCCCc1ccccc1 | -19% | -20%
COc1ccc(S(=O)Cc2ccc(C(=O)N3CCN(c4cccc(C)c4C)CC3)o2)cc1 (stereo not given) | -1% | -12%
CCOc1ccc(C2CC(=O)c3c([nH]c(C(=O)OC4CCC(C)CC4)c3C)C2)cc1 (stereo not given) | -5% | -6%
Cn1c(=O)c2c(ncn2CC(=O)N/N=C/C=C/c2ccccc2)n(C)c1=O | -11% | -13%
CC1CCCC(C)N1S(=O)(=O)c1ccc(Cl)cc1 (stereo not given) | 2% | -7%
O=S(=O)(Nc1ccc(F)c(C(F)(F)F)c1)c1ccc(N2CCCCS2(=O)=O)cc1 | -5% | -28%
CCCCN(C(=O)c1ccccc1Cl)C(CC(C)C)c1nc2ccccc2[nH]1 (stereo not given) | i | -2%
O=[N+]([O-])c1cccc(-c2c[n+]3c(n2-c2ccccc2)SCC3)c1 | i | -2%
Cc1nc2ccccc2n2c(-c3ccccc3)c3c(=O)n(C)c(=O)n(C)c3c12 | -11% | -15%&-15%
CC(C)Oc1cccc(C(=O)Nc2ccc(-c3nc4cc(Cl)cc(Cl)c4o3)cc2)c1 | -7% | -13%
Cc1ccc(OCC(=O)NCC(=O)OCc2cc(=O)n3nc(C)sc3n2)cc1 | -10% | -3%
O=C(NCCc1ccccc1)c1cnc2sc(N3CCCCC3)nn2c1=O | i | -9%
Cc1ccc(NC(=O)C2CCN(S(=O)(=O)c3c(C)noc3/C=C/c3cccs3)CC2)cc1F | -17% | -24%
CCOC(=O)c1ccc(NC(=O)Cn2ncc3c(C)n(Cc4ccccc4F)c(C)c3c2=O)cc1 | -4% | -11%
Cc1ccc(C)c(C(=O)c2c(C)nc3sccn23)c1 | · | -19%
O=C(Cc1ccc(F)cc1)N(c1ccc(F)cc1)C1C=CS(=O)(=O)C1 (stereo not given) | i | -16%
CCOC(=O)Cn1ccc(O)c(Cc2ccc(Cl)cc2Cl)c1=O | · | -10%
CCOC(=O)C1(CCc2ccccc2)CCN(C(=O)C2CCOCC2)CC1 | i | -3%
N#Cc1c(N)nc2c(c1-c1cccc(O)c1)CCCCCC2 | ? | ?
CCC(=O)N1Cc2cc(C(=O)Nc3nccs3)nc(-c3cccc(-c4ccccc4OC)c3)c2[C@@H]1CCO | -25% | -25%

A draw from above in order of number of heavy atoms, falling.
SMILES | Vaccinia mCherry | VACV Venus inh
CCC(=O)N1Cc2cc(C(=O)Nc3nccs3)nc(-c3cccc(-c4ccccc4OC)c3)c2[C@@H]1CCO | -25% | -25%
CCOC(=O)c1ccc(NC(=O)Cn2ncc3c(C)n(Cc4ccccc4F)c(C)c3c2=O)cc1 | -4% | -11%
Cc1ccc(NC(=O)C2CCN(S(=O)(=O)c3c(C)noc3/C=C/c3cccs3)CC2)cc1F | -17% | -24%
COc1ccc(S(=O)Cc2ccc(C(=O)N3CCN(c4cccc(C)c4C)CC3)o2)cc1 (stereo not given) | -1% | -12%
CC(C)Oc1cccc(C(=O)Nc2ccc(-c3nc4cc(Cl)cc(Cl)c4o3)cc2)c1 | -7% | -13%
O=S(=O)(Nc1ccc(F)c(C(F)(F)F)c1)c1ccc(N2CCCCS2(=O)=O)cc1 | -5% | -28%
Cc1nc2ccccc2n2c(-c3ccccc3)c3c(=O)n(C)c(=O)n(C)c3c12 | -11% | -15%&-15%
O=C(NCCc1ccccc1)c1cnc2sc(N3CCCCC3)nn2c1=O | i | -9%
O=C(Cc1ccc(F)cc1)N(c1ccc(F)cc1)C1C=CS(=O)(=O)C1 (stereo not given) | i | -16%
O=[N+]([O-])c1cccc(-c2c[n+]3c(n2-c2ccccc2)SCC3)c1 | i | -2%
N#Cc1c(N)nc2c(c1-c1cccc(O)c1)CCCCCC2 | ? | ?
Cc1ccc(C)c(C(=O)c2c(C)nc3sccn23)c1 | · | -19%
CC1CCCC(C)N1S(=O)(=O)c1ccc(Cl)cc1 (stereo not given) | 2% | -7%

Additional records.
SMILES | Vaccinia mCherry | VACV Venus inh
CCOC(=O)Nc1nnc(Cc2ccc(Cl)c(Cl)c2)s1 | -12% | -14%
COc1ccc(S(=O)(=O)N[C@@H](C)C(=O)OCC(=O)Nc2cc3oc4ccccc4c3cc2OC)cc1 | i | -16%
NC(=O)c1cc2ccccc2oc1=NCc1ccccc1 | · | -6%
COc1ccccc1NS(=O)(=O)c1ccc(C)c(NS(=O)(=O)c2cc(C(=O)O)cc(C)c2C)c1 | -5% | -8%
COc1cc(C2C(C#N)=C(N)Oc3c2ccc2ccccc32)ccc1OCC(=O)Nc1cccc(C)c1 (stereo not given) | -20% | ?
CCCCNC(=O)CC1SC(=NCC)N(CC)C1=O (stereo not given) | -10% | -7%
Cc1ccc(NC(=O)CSc2nnc(C3CC3)n2N)cc1S(=O)(=O)N1CCOCC1 | -1% | -7%
Cc1ccc(CCNC(=O)Cn2nc(-c3ccc(C)cc3)ccc2=O)cc1 | -5% | -6%
Cc1cccc(N2CCN(S(=O)(=O)c3ccc4[nH]c5c(c4c3)CCCCC5)CC2)c1C | -13% | -8%
COC(=O)c1cc(S(=O)(=O)Nc2cccc(-c3ccno3)c2)c[nH]1 | ? | -17%
C/C(O)=c1/cnc2nc3ccccc3n2c1=O | i | -7%
C[C@H](NC(=O)c1nc[nH]c1C(=O)NCCCCCNC(=O)OC(C)(C)C)C(=O)OC(C)(C)C | -11% | -22%
CCC(C)n1[nH]c(=O)cc1N (stereo not given) | i | -8%
c1cnc(N2CCN(c3ncc4c(n3)CCNC4)CC2)nc1 | -4% | 0%
COc1ccc(C(=O)Nc2nc(-c3ccc(Br)cc3)ns2)cc1 | -17% | -19%
Cc1cccc(NC(=O)CSc2nnc(C)c(=O)[nH]2)c1 | i | 1%
O=C(O)c1cccc(NC(=O)C2C3C=CC(C3)C2C(=O)OCC(F)(F)C(F)F)c1 (stereo not given) | · | -8%
Cc1nnc(N2CCc3ccccc3C2)[nH]c1=O | -15% | -8%
Cc1ccc(S(=O)(=O)N2C[C@@]3(O)Cn4c(=O)ccc(=O)n4C[C@@]3(OC(=O)NCC3CCCCC3)C2)cc1 | -13% | -10%
CC(=O)c1ccc(NC(=O)CCc2c(C)nc3cc(-c4ccc(Cl)cc4)nn3c2C)cc1 | -16% | -4%
O=C(NCCc1ccccc1)c1cccc([N+](=O)[O-])c1 | -2% | -2%
COc1cc2nc(N3CCCN(C)CC3)nc(NC3CCOCC3)c2cc1OC | ? | ?
CCN(CC)CCCNC(=O)CN1C(=O)COc2ccc(S(=O)(=O)N3CCC(C)CC3)cc21 | -6% | -1%
O=C(c1ccco1)N1CCN(S(=O)(=O)c2cccc(C(F)(F)F)c2)CC1 | -8% | -6%
O=C(Nc1ccc(OCC(=O)N2CCOCC2)cc1)c1cncc(Br)c1 | -4% | -9%
COC(=O)c1cn(Cc2cccc(C)c2)nn1 | i | -20%
O=C(CSc1nnc2c(n1)[nH]c1ccccc12)N1CCCCC1 | -15% | -22%
O=C(Nc1ccc(N2CCOCC2)cc1)c1cccc2c(-c3ccc(F)c(F)c3)coc12 | 4% | -20%
Cc1cccc(-n2c(C)nc3sccc3c2=O)c1 | -25% | -7%
CSc1nc2n(n1)C(C)C1=C(CCCC1=O)N2 (stereo not given) | 0% | -7%
CN(C)c1ccc(C2=Cc3ccccc3C2)cc1 | -3% | -6%
O=S(=O)(c1ccccc1)N(CC(O)Cn1c2ccccc2c2ccccc21)c1ccccc1 (stereo not given) | · | 10µM*
N#CCSc1nc2sc3c(c2c(=O)n1C1CCCCC1)CCCC3 | -12% | -11%
CCOC(=O)C1CN(S(=O)(=O)c2ccc(OC)cc2)c2cc(Cl)ccc2O1 (stereo not given) | -12% | -19%
CC(C)Nc1nc(NCCOc2ccccc2Cl)c2sc(-c3ccccc3)cc2n1 | ? | -27%
Cc1ccc(NC(=O)C2(c3ccccc3)CCOCC2)cc1 | 3% | -4%
COC(=O)[C@@H]1CCCN1C(=O)c1cnn(-c2nccc(-c3cc(C)sc3C)n2)c1C1CC1 | i | -11%
COc1cc(C(=O)N/N=C/C23CC[C@@H](O)CC2(O)CC[C@@H]2[C@@H]3CCC3(C)C(C4=CC(=O)OC4)CCC23O)ccc1O (stereo not given in full) | 10µM* | ?
CCOC(=O)C1=C(C)NC2=C(C(=O)CCC2)C1c1cc(OC)ccc1OC (stereo not given) | -13% | -10%
Cc1ccc(NC(=O)C2CCN(C(=O)c3ccccc3C)CC2)nc1 | -1% | -9%
Cc1noc(C)c1NC(=O)N(C)C[C@@H]1Oc2ncc(Br)cc2C(=O)N([C@H](C)CO)C[C@@H]1C | i | 5%
Cc1ccc(OCC(=O)N/N=C/c2c[nH]c3ccccc23)c([N+](=O)[O-])c1 | -5% | -17%
CCCCN(CC)CCCNC(=O)c1cc2cc3ccc(C)cc3nc2o1 | 7% | 0%
Cc1c(C(=O)N(Cc2ccc(Cl)cc2)CC2CCCO2)oc2ccc(F)cc12 (stereo not given) | -12% | -10%
O=C(C[n+]1cc(-c2ccccc2)n2c1CCC2)OCc1ccccc1 | -15% | -11%
O=C(COC(=O)c1c(Cl)cccc1Cl)NC1CCCCC1 | i | -15%
CC1=Nc2cc(C(=O)NCc3ccco3)ccc2Sc2ccc(C)cc21 | ? | ?
CS(=O)(=O)N(CCc1ccccc1)CC(=O)NCc1ccc(Cl)cc1 | -13% | 0%
COC(=O)C(CC(=O)c1ccc(Cl)cc1)c1ccc(C(C)C)cc1 (stereo not given) | · | 3%
Cn1c(O)c(/C=C/C=Nc2ccccc2)c(=O)n(C)c1=S | · | i

New compounds follow.
SMILES | Vaccinia mCherry | VACV Venus inh
Cn1c2ccccc2c2cnn(CC(=O)Nc3ccc(F)cc3F)c(=O)c21 | i | -14%
COc1ccc(CNC(=O)N2CCc3ccccc3C2)cc1Cl | -10% | -18%
CCNC(=O)COC(=O)c1cc(-c2ccc(OC)cc2)nc2ccccc12 | i | -7%
Cc1ccc(OCC(=O)c2ccc(Cl)s2)c([N+](=O)[O-])n1 | -16% | -6%
CCC(CC)=N/N=C/c1c(O)n(CC)c2cc(C3=NNC(=O)CC3)ccc12 | · | 15%
CCNC(=O)C1(C)CCCN(C(=O)c2ccc3ccccc3n2)C1 (stereo not given) | -15% | -4%
Cc1cc(=O)oc2c(C)c(OCC(=O)NCC3CCC(C(=O)O)CC3)ccc12 (stereo not given) | -1% | -3%
CC(=O)c1cccc(N(CC(=O)Nc2ccc(F)cc2)S(C)(=O)=O)c1 | -2% | -2%
OC(COc1ccccc1)CN1CCCCCC1 (stereo not given) | -5% | -9%
Cc1cccc(CSCC(=O)NCc2ccc(S(N)(=O)=O)cc2)c1 | -5% | -11%
Cc1nc(NC(=O)c2ccco2)sc1C(=O)Nc1ccc(Br)cc1 | -11% | -9%
Cc1ccc(-c2csc(NC(=O)CCNC(=O)c3ccccc3Cl)n2)cc1 | ? | ?
Cc1ccc(C)c(NC(=O)CSc2nc(C)cc(C)c2C#N)c1 | i | -7%
O=[N+]([O-])c1cccc(Cl)c1NCCNS(=O)(=O)c1ccccc1 | ? | ?
CCOC(=O)C1=C(C)NC(=O)/C1=C\N(C)C | -1% | 7%
COC(=O)c1ccccc1SC1CC(=O)N(c2cccc(C)c2)C1=O (stereo not given) | -13% | -5%
N#CC1(NC(=O)COC(=O)Cn2[nH]c(=O)c3ccccc3c2=O)CCCCC1 | i | -8%
Nc1cccc2c(O)cc(S(=O)(=O)O)cc12 | i | 3%
